Screening data: PubChem BioAssay, several laboratories
CSC inhib – cancer stem cell inhibition; inhibition, % at 7.5 µM; cancer stem cell-like cells viability, luminescence; hit rate 1.1% among 300,000;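 active = mean at 75% or more and at least half the replicates too; inconclusive = mean and replicates disagree; tested in HMLE shEcad cells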;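 also: 0% = median of negative and 100% = median of positive control wells; the first replicate is given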
Rce1 inhib – inhibitors of yeast Ras-converting enzyme; calls only; hit rate 0.27% among 290,000; yeast membranes, quenched prenylated peptide cleavage fluorescence;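 active = fall in fluorescence gain of 50% or more versus controls, with final raw signal at or below 3038400; inconclusive = same 50% fall but final raw signal above 3038400; inactive = fall in fluorescence gain under 50%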;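 also: plate controls were neutral control wells for no effect and wells lacking membranes for full effect; tested at 10 µM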
Target sequence (Q03530 whole entry, looked up): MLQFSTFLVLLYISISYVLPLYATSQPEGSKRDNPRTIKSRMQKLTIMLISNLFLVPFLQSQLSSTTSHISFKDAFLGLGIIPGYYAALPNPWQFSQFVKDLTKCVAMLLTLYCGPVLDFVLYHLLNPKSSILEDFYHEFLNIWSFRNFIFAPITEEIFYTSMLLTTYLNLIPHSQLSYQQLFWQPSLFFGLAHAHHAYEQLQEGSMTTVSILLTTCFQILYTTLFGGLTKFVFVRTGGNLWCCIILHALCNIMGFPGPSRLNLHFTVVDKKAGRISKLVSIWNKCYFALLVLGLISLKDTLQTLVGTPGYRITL
eIF4H FP inh – inhibitors of RNA binding by human eIF4H. Q15056. eIF4H fluorescence polarization binding assay. inhibition, % at 35 µM. hit rate 0.94% among 290,000. AID 2012;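 active = 50% or more with normal probe brightness, or confirmed in later tests; inconclusive = above 50% with abnormal brightness, or retests that disagree; inactive = below 50% or failed in later tests; about a fifth of its hits are not listed in these tables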;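 also: calls also rest on retests at 20 µM and on dose response follow-up; 0% = protein and probe with vehicle and 100% = probe without protein; strong numbers were not always called active; many hits fall short of the cut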
HIV Env fusion – HIV envelope-mediated fusion inhibition. HeLa-JRFL Env/CEM21 cell fusion, luciferase. inhibition, % at 12.3 µM. hit rate 1.1% among 360,000;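 active = mean replicate inhibition score of at least 50 and every replicate individually at or above 50; inconclusive = only one of the two criteria met; inactive = mean below 50 and not all replicates reaching 50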;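 also: 0% = plate neutral controls and 100% = maraviroc near 300 nM; one replicate is shown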
UUG fidelity – modulators of start codon recognition fidelity in yeast; hit rate 0.13% among 350,000; S. cerevisiae UUG-firefly luciferase reporter, luminescence/redox ratio; activity score, % at 18.7 µM;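 active = replicate mean at a twofold rise or more, about +100% in these data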;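 also: firefly luciferase made from a UUG start codon reports start codon fidelity; reporter light over untreated wells divided by growth signal over untreated wells; some hits fall short of that in this replicate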
PABP FP inh – PABP-poly(A) binding inhibition. inhibition, % at 35 µM. PABP-poly(A) RNA binding, fluorescence polarization. P11940. hit rate 1% among 290,000. AID 2014;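 active = 50% or more with normal probe brightness, or confirmed in later tests; inconclusive = above 50% with abnormal brightness, or retests that disagree; inactive = below 50% or failed in later tests; about a fifth of its hits are not listed in these tables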;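 also: calls also rest on retests at 20 µM and on dose response follow-up; controls were probe without protein and protein plus probe with vehicle; some compounds called inactive have numbers as strong as hits; many hits fall short of the cut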
MT1-MMP act inh – inhibitors of human MT1-MMP activation; HT1080 RFP-PRO-GFP cells, GFP/RFP ratio fluorescence, overnight; percent of plate control window, DMSO zero; GFP/RFP ratio change, % at 20 µM; hit rate 0.061% among 360,000; P50281;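 active = GFP/RFP ratio change of at least 30% with cell ATP level not reduced by more than half and red fluorescence within 50% of control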; also: strong numbers were not always called active
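Read-out: GFP/RFP fluorescence ratio; Test system: RFP-PRO-GFP reporter HT1080 cells; Compound dosing: single-point 20 µM compound, 1% DMSO; Times: overnight compound exposure at 37 °C.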
eIF4H FP inh retest – second read-out of eIF4H FP inh, no call of its own (marks repeat the call); inhibition, %; compound at 20 µM; confirmation average;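 mean of two retest wells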
PABP FP inh retest – second read-out of PABP FP inh, no call of its own (marks repeat the call); inhibition, %; compound at 20 µM; confirmation repeats;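 mean of two retest wells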
MT1-MMP act inh RFP – second read-out of MT1-MMP act inh, no call of its own (marks repeat the call); RFP signal change, %; measured here: RFP expression control read;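 0 = vehicle wells; hits needed this value within 50% of zero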
* = called active by the depositor; i = inactive; ? = inconclusive; / = no result given; & = joins results of further samples; [ ] = another dose, or the depositor's remark.

SMILES	CSC inhib	Rce1 inhib	eIF4H FP inh	HIV Env fusion	UUG fidelity	PABP FP inh	MT1-MMP act inh	MT1-MMP act inh RFP	others
Cc1ccccc1OCC(=O)Nc1ccc([N+](=O)[O-])cc1	-20	i	5	-4	-4	-6	7	0
COc1cc(SC)ccc1C(=O)Nc1ccncc1	8	i	-10	5	/	-5	-1	-5
COc1ccc(CNC(=S)NCc2ccc(F)cc2)cc1OC	-8	i	1	-22	-14	5	3	-6
CC(=O)c1ccc(NC2CC(O)C(O)CO2)cc1 (stereo unspecified)	-4	i	-8	-112	-7	1	-1	6
Cc1ccccc1OCCOC(=O)c1cc(S(=O)(=O)N2CCOCC2)ccc1C	/	/	/	9	-30	/	-3	1
O=c1[nH]c2ccccc2nc1/C=C/c1ccc(F)cc1	-4	i	86	-93	-13	88*	-25	-3	eIF4H FP inh retest=3;PABP FP inh retest=82*
CCn1c(C)nc2cc(C(=O)N/N=C/c3ccccc3C)ccc21	0	i	-15	-47	-30	4	5	-1
NC(=O)N/N=C/c1ccccc1OCc1cccc2ccccc12	-3	i	-7	15	-16	-3	-6	-9
CCc1c(C(=O)NNC(=S)NCc2ccccc2)csc1C	-1	i	-4	/	/	21	-2	-3
COC(=O)c1cnn(-c2nc3c(C)cccc3s2)c1C	15	i	-2	/	-20	-1	-4	3
CCC(=O)Nc1ccc(C(=O)NNC(=O)c2cc(OC)c(OC)c(OC)c2)cc1	/	i	4	2	/	2	-3	2
CC(=O)Nc1ccc(S(=O)(=O)N2CCN(c3ccc(C)c(Cl)c3)CC2)cc1	9	i	3	-8	-10	-2	11	0
O=C(Cn1ccc([N+](=O)[O-])n1)NCCc1c[nH]c2ccccc12	-4	i	0	-7	-19	-4	1	1
CC(C)CN1C(=O)c2ccc(C(=O)NCc3ccccn3)cc2C1=O	-2	i	-13	-7	-9	-7	3	3
CCC(C)(C)C1CCC2(CC1)NC(=O)N(CC(=O)N(C)Cc1ccc3c(c1)OCCO3)C2=O (stereo unspecified)	5	/	/	8	3	/	0	-20
O=C(N/N=C/c1ccc(OC(F)F)cc1)c1cc[n+]([O-])cc1	-5	i	-15	16	-9	1	3	1
ONC(=Nc1ccccc1Cl)c1c(F)cccc1F	16	i	/	16	/	/	4	4
CCN(c1ccccc1)S(=O)(=O)c1ccc(OC)c(NC(=O)COc2ccc(C(C)=O)cc2)c1	-10	i	/	19	-23	/	-2	-4
CN(CCO)c1ncnc2nc[nH]c12	-9	i	-10	21	-15	13	0	4
COc1ccc(Cc2c(-c3ccc(C)cc3)nc3c(C)cc(Br)cn23)c(C)c1	/	/	/	-12	-1	/	-3	0
COC(=O)c1ccc(-n2cc(-c3ccc(OC)cc3)[nH]c2=S)cc1	-13	/	12	7	/	6	-3	5
COc1ccc(OC)c(C(=O)CN2C(=O)C(=O)N(C3CCCC3)C2=O)c1	-12	/	/	-16	-9	/	-2	4
Cc1nc2oc3ccc(Cl)cc3c(=O)c2cc1C(=O)O	-2	i	-1	-4	0	0	-4	-1
Cc1ccc(NC(=O)c2cn(CCC#N)nc2-c2cccs2)c([N+](=O)[O-])c1	-6	i	-4	-27	/	3	5	3
Nc1ccc(N2CCCCC2)c2nonc12	6	i	2	-11	-11	8	-1	6
Cc1sc2nc(SCC(=O)N3CCN(CCO)CC3)n(-c3ccccc3)c(=O)c2c1C	-13	/	12	28	-16	0	-4	-1
COc1cc(C(=O)N(CCc2ccccc2)C2=CC3CCC(C2)N3C)cc(OC)c1OC (stereo unspecified)	-9	i	-4	/	0	-2	2	-2
CCOC(=O)C1(C)CCN1C(=O)c1ccc2ccccc2c1 (stereo unspecified)	/	/	/	8	-17	/	5	4
CC(=O)Nc1ccc(NC(=O)COC(=O)c2cc(S(=O)(=O)N(C)C)ccc2N2CCCC2)cc1	-7	i	/	/	/	/	3	3
O=C(CCCCCBr)N1CCC(CC2CC(c3cccc(Br)c3)=NO2)(C(=O)NCC2CCCCC2)CC1 (stereo unspecified)	-16	i	-8	3	-11	-5	3	-3
COC(=O)c1sc(Nc2ccccc2)nc1C	-2	i	0	/	-6	4	1	-2
Cc1oc2c(C)c(O)ccc2c(=O)c1-c1nncn1-c1ccccc1	/	i	?	2	/	22*	-16	1	PABP FP inh retest=98*
O=C(Nc1ccccc1[N+](=O)[O-])c1ccc(S(=O)(=O)N2CCCC2)cc1	23	i	-13	-27	2	11	3	-3
CCOc1ccccc1N1CC(C(=O)NCCc2ccc(S(N)(=O)=O)cc2)CC1=O (stereo unspecified)	-16	i	-8	-70	-8	-6	-3	-2
C[C@H](CO)N1C[C@H](C)[C@@H](CN(C)S(=O)(=O)c2ccccc2)Oc2ccc(NC(=O)Cc3ccccc3)cc2C1=O	-22	/	/	10[16.7 µM]	5&-8	/	-1	-3
N#CC1(NC(=O)Cn2ncc(Cl)c(Cl)c2=O)CCCCC1	-9	/	/	-128	-17	/	-6	-3
CNC(=S)Nc1cccc2[nH]ncc12	0	i	14	-90	-17	4	5	0
COC(=O)COc1ccc(S(=O)(=O)N2CCc3ccccc3C2)cc1C	-2	i	-2	/	12	-4	0	6
COc1ccc(N2CC(C(=O)NC3CC(C)(C)NC(C)(C)C3)CC2=O)cc1 (stereo unspecified)	-14	i	-1	-7	-13	2	-1	6
Nc1ccc(-c2cc3ccccc3c(=O)o2)cc1	12	/	/	-44	-27	/	4	-3
CCCN1C(=O)/C(=C/c2ccncc2)SC1=S	-5	i	-5	7	/	-7	4	5
CCOc1ccc(C(=O)Nc2cc(OC)ccc2OC)cc1	-4	i	-5	/	-7	4	1	4
CCCC(=O)Nc1cccc(-c2cn3cccnc3n2)c1	-13	i	0	-10	/	-3	7	2
COc1ccc(NC(=O)C2=C(C)C(=O)OC23CCC(C)CC3)cc1Cl (stereo unspecified)	4	i	-1	0	9	-5	20	1
CC(C(=O)N1c2ccccc2Sc2ccccc21)n1nnc(-c2cccs2)n1 (stereo unspecified)	-2	i	4	/	/	10	6	-10
Fc1cc(F)c2nc(Nc3nc4cc5c(cc4s3)OCO5)sc2c1	46	i	17	-10	/	-11	5	7
CC(NC(=O)[C@H](C)N1C(=O)N2CCc3c([nH]c4ccccc34)[C@@]2(C)C1=O)c1ccccc1 (stereo partly specified)	-7	/	4	/	-18	3	-9	-15
CCOc1cc(-c2cc(-c3ccc(C)o3)nc(N)c2C#N)ccc1O	30	i	2	-7	-17	13	-8	-9

Sorted by SMILES length (lowest first): some entries from above.
SMILES	CSC inhib	Rce1 inhib	eIF4H FP inh	HIV Env fusion	UUG fidelity	PABP FP inh	MT1-MMP act inh	MT1-MMP act inh RFP	others
COc1ccc(OC)c(C(=O)CN2C(=O)C(=O)N(C3CCCC3)C2=O)c1	-12	/	/	-16	-9	/	-2	4
CCC(=O)Nc1ccc(C(=O)NNC(=O)c2cc(OC)c(OC)c(OC)c2)cc1	/	i	4	2	/	2	-3	2
CC(=O)Nc1ccc(S(=O)(=O)N2CCN(c3ccc(C)c(Cl)c3)CC2)cc1	9	i	3	-8	-10	-2	11	0

Quoted from the results shown (two entries):
SMILES	CSC inhib	Rce1 inhib	eIF4H FP inh	HIV Env fusion	UUG fidelity	PABP FP inh	MT1-MMP act inh	MT1-MMP act inh RFP	others
CC(NC(=O)[C@H](C)N1C(=O)N2CCc3c([nH]c4ccccc34)[C@@]2(C)C1=O)c1ccccc1 (stereo partly specified)	-7	/	4	/	-18	3	-9	-15
CCOc1cc(-c2cc(-c3ccc(C)o3)nc(N)c2C#N)ccc1O	30	i	2	-7	-17	13	-8	-9

Returning to the listing; the 2 compounds before the break are reprinted first.
SMILES	CSC inhib	Rce1 inhib	eIF4H FP inh	HIV Env fusion	UUG fidelity	PABP FP inh	MT1-MMP act inh	MT1-MMP act inh RFP	others
CC(NC(=O)[C@H](C)N1C(=O)N2CCc3c([nH]c4ccccc34)[C@@]2(C)C1=O)c1ccccc1 (stereo partly specified)	-7	/	4	/	-18	3	-9	-15
CCOc1cc(-c2cc(-c3ccc(C)o3)nc(N)c2C#N)ccc1O	30	i	2	-7	-17	13	-8	-9
O=C(NC1CCCCCC1)c1c(O)nc2sccn2c1=O	5	i	/	24	/	/	0	-2
C/C(N)=C(/C#N)C(=O)CSc1nc(-c2ccccc2)c(-c2ccccc2)o1	16	i	4	6	-15	2	0	-2
Cc1ccc2c(CC(=O)Nc3ccc4nc(N5CCOCC5)sc4c3)coc2c1	/	/	/	15	-14	/	-3	2
O=C(C1CCCN(Cc2ccccc2F)C1)N1CCc2ccccc2C1 (stereo unspecified)	-8	i	17	-8	-2	12	6	6
C=CCNc1nc(C(=O)OC(C)C(=O)c2ccc(C)cc2)cs1 (stereo unspecified)	4	/	/	-38	-16	/	1	-2
Cc1ccc(OCC(=O)Nc2cccc3ccccc23)c([N+](=O)[O-])n1	-22	/	/	-9	1	/	-10	-5
NS(=O)(=O)c1ccc(N=Cc2c(O)n(-c3nccs3)c(=O)c3ccccc23)cc1	-13	i	-6	-2	-17	8	4	1
CC1(C)CC(=O)C(CCCN2C(=O)c3ccccc3C2=O)C(=O)C1	-9	i	-2	1	-6	1	3	1
COc1ccc(OC)c(NC(=O)CSc2nc(=O)n(CCN3CCOCC3)c3c2CCCC3)c1	/	i	/	-5	0	/	2	4
O=C(Nc1nnc([C@@H]2C[C@H](O)[C@@H](CO)O2)s1)c1cccc(Oc2ccccc2)c1	/	/	/	-7	-1	/	0	1
COc1ccc(OC)c(C(C)NC(=S)Nc2ccc(S(=O)(=O)Nc3ncccn3)cc2)c1 (stereo unspecified)	-12	i	-7	-10	-15	4	-2	-1
Cc1cn(CC(=O)NCCCN2CCCC2=O)c(=O)[nH]c1=O	/	/	/	5	-20	/	4	4

Gathered by group, those above with a nitro group on carbon (five)
SMILES	CSC inhib	Rce1 inhib	eIF4H FP inh	HIV Env fusion	UUG fidelity	PABP FP inh	MT1-MMP act inh	MT1-MMP act inh RFP	others
Cc1ccccc1OCC(=O)Nc1ccc([N+](=O)[O-])cc1	-20	i	5	-4	-4	-6	7	0
O=C(Cn1ccc([N+](=O)[O-])n1)NCCc1c[nH]c2ccccc12	-4	i	0	-7	-19	-4	1	1
Cc1ccc(NC(=O)c2cn(CCC#N)nc2-c2cccs2)c([N+](=O)[O-])c1	-6	i	-4	-27	/	3	5	3
O=C(Nc1ccccc1[N+](=O)[O-])c1ccc(S(=O)(=O)N2CCCC2)cc1	23	i	-13	-27	2	11	3	-3
Cc1ccc(OCC(=O)Nc2cccc3ccccc23)c([N+](=O)[O-])n1	-22	/	/	-9	1	/	-10	-5

New compounds follow.
SMILES	CSC inhib	Rce1 inhib	eIF4H FP inh	HIV Env fusion	UUG fidelity	PABP FP inh	MT1-MMP act inh	MT1-MMP act inh RFP	others
CC(C)CN(c1ccccc1)S(=O)(=O)c1nnc(NC(=O)c2ccco2)s1	17	i	-3	7	/	21	1	-2
CCCc1nnc(NC(=O)CCC(=O)N2CCCCCC2)s1	-6	i	0	-6	-11	0	-5	-3
CN(CCOC(=O)c1ccc2c(c1)OCCO2)C(C)(C)C	-17	i	-1	/	-19	-10	0	1
NC(=O)C1(Nc2ccc(Br)cc2)CCCC1	/	/	/	15	-18	/	-1	0

Rows were taken by chance; 2.9% or so of the library scored in one or more.
